Env fusion inh – inhibitors of HIV Env-mediated cell fusion; HeLa-JRFL Env/CEM21 cell fusion, luciferase; 1.1% of 360,000 active; inhibition, % at 12.3 µM;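 active means mean replicate inhibition score of at least 50 and every replicate individually at or above 50; inconclusive means only one of the two criteria met; inactive means mean below 50 and not all replicates reaching 50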;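 further: 0% = plate neutral controls and 100% = maraviroc near 300 nM; one replicate is shown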
Rce1 inhib – blocks yeast Ras-converting enzyme; calls only; Q03530; yeast membranes, quenched prenylated peptide cleavage fluorescence; 0.27% of 290,000 active; AID 2563;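 active means fall in fluorescence gain of 50% or more versus controls, with final raw signal at or below 3038400; inconclusive means same 50% fall but final raw signal above 3038400; inactive means fall in fluorescence gain under 50%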;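 further: plate controls were neutral control wells for no effect and wells lacking membranes for full effect; tested at 10 µM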
Target sequence (Q03530 whole entry, looked up): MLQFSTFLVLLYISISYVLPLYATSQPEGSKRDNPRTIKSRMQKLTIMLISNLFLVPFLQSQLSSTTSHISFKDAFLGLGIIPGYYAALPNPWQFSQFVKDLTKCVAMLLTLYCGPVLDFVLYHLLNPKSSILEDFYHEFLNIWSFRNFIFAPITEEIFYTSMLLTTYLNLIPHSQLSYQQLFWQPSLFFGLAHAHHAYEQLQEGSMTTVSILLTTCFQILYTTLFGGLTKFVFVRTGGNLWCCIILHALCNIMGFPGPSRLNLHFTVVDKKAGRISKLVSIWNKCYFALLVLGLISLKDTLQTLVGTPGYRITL
eIF4H FP inh – inhibitors of RNA binding by human eIF4H. 0.94% of 290,000 active. inhibition, % at 35 µM. Q15056. eIF4H fluorescence polarization binding assay. AID 2012;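 active means 50% or more with normal probe brightness, or confirmed in later tests; inconclusive means above 50% with abnormal brightness, or retests that disagree; inactive means below 50% or failed in later tests; about a fifth of its hits are not listed in these tables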;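 further: calls also rest on retests at 20 µM and on dose response follow-up; 0% = protein and probe with vehicle and 100% = probe without protein; strong numbers were not always called active; many hits fall short of the cut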
Yeast UUG start – yeast start codon fidelity modulation | S. cerevisiae UUG-firefly luciferase reporter, luminescence/redox ratio | activity score, % at 18.7 µM | 0.13% of 350,000 active | AID 602363;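 active means replicate mean at a twofold rise or more, about +100% in these data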;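 further: firefly luciferase made from a UUG start codon reports start codon fidelity; reporter light over untreated wells divided by growth signal over untreated wells; some hits fall short of that in this replicate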
PABP polyA inh – blocks human PABP binding to poly(A) RNA | P11940 | fluorescence polarization | inhibition, % at 35 µM | 1% of 290,000 active | AID 2014;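 active means 50% or more with normal probe brightness, or confirmed in later tests; inconclusive means above 50% with abnormal brightness, or retests that disagree; inactive means below 50% or failed in later tests; about a fifth of its hits are not listed in these tables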;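 further: calls also rest on retests at 20 µM and on dose response follow-up; controls were probe without protein and protein plus probe with vehicle; some compounds called inactive have numbers as strong as hits; many hits fall short of the cut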
MT1-MMP act inh – blocks activation of human MT1-MMP. P50281. HT1080 RFP-PRO-GFP cells, GFP/RFP ratio fluorescence, overnight; percent of plate control window, DMSO zero. GFP/RFP ratio change, % at 20 µM. 0.061% of 360,000 active;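 active means GFP/RFP ratio change of at least 30% with cell ATP level not reduced by more than half and red fluorescence within 50% of control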; further: strong numbers were not always called active
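Assay system: HT1080 RFP-PRO-GFP cells. Benchmarks: DMSO vehicle wells and RFP-L50D-GFP reporter cell wells. Times: overnight cell settling, then overnight compound exposure, 37 °C, 5% CO2. Compound: 20 µM single dose, 1% DMSO. Read-out basis: GFP/RFP fluorescence ratio.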
CSC inhib – blocks cancer stem cells; cancer stem cell-like cells viability, luminescence; inhibition, % at 7.5 µM; 1.1% of 300,000 active;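 active means mean at 75% or more and at least half the replicates too; inconclusive means mean and replicates disagree; tested in HMLE shEcad cells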;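 further: 0% = median of negative and 100% = median of positive control wells; the first replicate is given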
eIF4H FP inh retest – further read-out of eIF4H FP inh, marked with its call; inhibition, %; compound at 20 µM; confirmation average;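 mean of two retest wells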
PABP polyA inh retest – second read-out of PABP polyA inh, no call of its own (marks repeat the call); inhibition, %; compound at 20 µM; confirmation repeats;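 mean of two retest wells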
MT1-MMP act inh RFP – further read-out of MT1-MMP act inh, marked with its call; RFP signal change, %; measured here: RFP expression control read;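 0 = vehicle wells; hits needed this value within 50% of zero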
Starred values were filed as active, the others as inactive; i = inactive; ? = inconclusive; nt = not tested or not shown; + = active, no number; & = joins results of further samples; [ ] = another dose, or the depositor's remark. Rows are unselected. Share with any hit: about 3%.

SMILES | Env fusion inh | Rce1 inhib | eIF4H FP inh | Yeast UUG start | PABP polyA inh | MT1-MMP act inh | MT1-MMP act inh RFP | CSC inhib | others
COc1ccccc1CC1(C)NC(=O)N(CC(=O)N2CC(C)OC(C)C2)C1=O (stereo not drawn) | nt | nt | -4 | 17 | 0 | -7 | -1 | -25
COc1ccc(S(=O)(=O)N2CC(C)N(S(=O)(=O)c3ccc(OC)cc3)CC2C)cc1 (stereo not drawn) | nt | i | -2 | nt | 9 | nt | nt | 8
COC(=O)c1ccc(NC(=O)CCS(=O)(=O)c2ccc(Br)cc2)cc1 | -1 | i | 61 | -28 | 2 | 6 | 6 | -5 | eIF4H FP inh retest=12;PABP polyA inh retest=5
O=C(Cn1cc(-c2ccccn2)nn1)NS(=O)(=O)c1cccc(OC(F)F)c1 | -8 | nt | nt | -32 | nt | -3 | 0 | nt
CC(C(=O)NCC1CCCO1)n1cccc1C(=O)c1ccccc1 (stereo not drawn) | nt | i | 5 | 0 | 4 | 5 | 2 | -2
CC(C)Cc1ccc(C(C)C(=O)N2CCOCC2)cc1 (stereo not drawn) | 14 | i | -9 | -7 | 1 | 0 | -3 | -2
COC(=O)Cc1[nH]nc2c1C1(CCSCC1)C(C#N)=C(N)O2 | nt | i | -8 | nt | 10 | 4 | 2 | -3
Cc1ccc(-c2nn(CC(=O)N(C)C)c(=O)c3ccccc23)cc1S(=O)(=O)N(C)C | -62 | i | 5 | -9 | -8 | -1 | 3 | -7
O=C(NC1CCCCCCC1)c1cc(-c2ccccn2)nc2ccccc12 | -3 | i | -4 | nt | -4 | 3 | 0 | -2
CCCCN1C(=O)/C(=C2/C=CC=CN2C)SC1=S | -2 | i | 0 | -13 | -3 | 22 | 5 | nt
CC(=O)Nc1ccc(S(=O)(=O)N(C)CC(=O)NC2=NCCS2)cc1 | nt | i | -8 | -12 | 2 | 2 | 1 | -10
Cc1cc([N+](=O)[O-])ccc1NS(=O)(=O)c1ccccc1 | -33 | nt | nt | -18 | nt | 7 | -10 | nt
CCO/C(C)=N/n1c2nc3ccccc3nc2c2c(=O)n(Cc3ccccc3Cl)c(C)nc21 | nt | i | -15 | -6 | -14 | 1 | -7 | -7
COc1cc(Cl)c(C)cc1NC(=O)CCCn1c(=O)oc2ccccc21 | nt | i | -6 | nt | 10 | 8 | 1 | 8
Cc1ccc(/C=C/S(=O)(=O)NCC(=O)OCC(=O)Nc2ccc(C(N)=O)cc2)cc1 | 6 | i | nt | nt | nt | 0 | 2 | 5
Cc1nc(Cl)sc1C(=O)Nc1ccc(Cl)cc1 | -4 | i | -2 | -3 | -1 | -1 | 1 | -8
CC1CCCN(C(=O)/C(=C/c2ccco2)NC(=O)c2ccccc2)C1 (stereo not drawn) | 11 | i | 5 | -2 | 9 | -3 | 5 | nt
COc1cc(OC)cc(-c2cc3nc(C)c(CCC(=O)O)c(C)n3n2)c1 | 73* | nt | -5 | -15 | 11 | 3 | 1 | 9
O=C(O)c1cncc(C#CCC2CCCCC2)c1 | -3 | i | -9 | nt | -1 | -2 | 3 | 11
Cc1nc2ccc(NC(=O)c3sccc3C)cc2s1 | nt | i | -12 | nt | -2 | 5 | 7 | -29
Cc1c(NC2=CC(=O)CC(C)(C)C2)ccc([N+](=O)[O-])c1C | -3 | nt | -2 | nt | -8 | 0 | 0 | 1
Cc1cccc(C)c1OCc1cc(C(=O)N2CCN3CCCC3C2)no1 (stereo not drawn) | -5 | i | 4 | 4 | 10 | -1 | -2 | -8
Cc1cc(C(=O)O)ccc1-c1ccc(CO)o1 | -6 | ? | 6 | -13 | -3 | -1 | -1 | 2
Cc1ccc(Nc2nc(Cl)c(C=O)s2)cc1Cl | -72 | i | 23 | nt | -4 | -55 | -2 | 9
O=S(=O)(NCc1ccccc1)c1ccc(S(=O)(=O)N(Cc2ccccn2)Cc2ccco2)cc1 | 4 | i | -4 | -8 | -4 | -2 | -2 | 10
CCn1c(-c2csc3c2CCCC3)n[nH]c1=S | -69 | i | 8 | nt | -5 | 2 | 1 | -11
O=C(COc1ccccc1Cl)Nc1cccc(S(=O)(=O)N2CCCC2)c1 | 11 | nt | nt | -41 | nt | 2 | -13 | 0
Cc1ccc(/C=N/Nc2nc(C)cc(C)n2)cc1 | -5 | i | -1 | -16 | -11 | -1 | 0 | -14
CCO[C@@H]1OC(C(=O)NCc2nc3ccccc3[nH]2)=C[C@H](C2CC2)[C@H]1CCCO | -41[16.7 µM] | i | 8 | -27&-21 | -2 | -5 | -7 | 36
O=C(COC(=O)c1ccc(F)c(S(=O)(=O)N2CCOCC2)c1)NCCc1ccccc1 | -91 | i | nt | -2 | nt | -3 | 6 | -2
CCS(=O)(=O)N1CCCC(C(=O)NC2CCCCC2)C1 (stereo not drawn) | nt | i | -6 | 1 | -5 | -1 | 0 | 2
CCOC(=O)CSc1ncc(-c2cccc(Cl)c2)cn1 | 12 | i | -6 | -15 | 1 | 11 | 7 | nt
CC(C)(C)c1ccc(C(=O)NC2CCN(Cc3ccccc3)CC2)cc1 | -3 | i | -6 | -8 | -7 | 8 | -1 | 19
O=C(NNC(=O)C1CC1)c1cc(Br)c(Br)s1 | nt | nt | nt | -7 | nt | -3 | -2 | 16
Cc1ccc(S(=O)(=O)NCCC(=O)NC(C)CCc2ccccc2)cc1 (stereo not drawn) | 9 | i | nt | -14 | nt | 0 | -1 | -9
O=C(Nc1ccc(Cl)cc1Cl)c1csc(-c2cccnc2)n1 | -16 | i | 6 | -13 | -9 | -4 | -6 | -7
CC(C)CN(C(=O)c1ccco1)C1CCS(=O)(=O)C1 (stereo not drawn) | nt | i | nt | -2 | nt | -2 | 1 | -5
Cc1nn(-c2ccccc2)c(NC(=O)c2ccccc2)c1Br | 8 | i | 0 | -16 | 6 | 0 | 0 | nt
O=C(Nc1ccc2nc([C@H]3C[C@H](O)[C@@H](CO)O3)[nH]c2c1)NC(c1ccccc1)c1ccccc1 | -2 | nt | nt | -18 | nt | 2 | 0 | nt
Cc1ccc(NCc2ccncc2)c(Br)c1 | -5 | i | 3 | -10 | 19 | 2 | -8 | 0

Next section (2 carried over from the part before).
SMILES | Env fusion inh | Rce1 inhib | eIF4H FP inh | Yeast UUG start | PABP polyA inh | MT1-MMP act inh | MT1-MMP act inh RFP | CSC inhib | others
O=C(Nc1ccc2nc([C@H]3C[C@H](O)[C@@H](CO)O3)[nH]c2c1)NC(c1ccccc1)c1ccccc1 | -2 | nt | nt | -18 | nt | 2 | 0 | nt
Cc1ccc(NCc2ccncc2)c(Br)c1 | -5 | i | 3 | -10 | 19 | 2 | -8 | 0
COCc1cc(=O)n2[nH]c(C(C)(C)C)cc2n1 | 6 | i | 4 | -9 | -8 | 0 | 0 | -3
Cn1cccc1C(=O)OCC(=O)Nc1ccc2c(c1)OCO2 | -7 | i | 0 | nt | 0 | 2 | 7 | 5
COc1cc(OC)c2c(c1)C(=O)OC2OC (stereo not drawn) | 1 | i | -6 | nt | 18 | -3 | -3 | -16
COC(=O)NCC1(C)CC(NC(=O)OC)CC(C)(C)C1 (stereo not drawn) | -26 | i | -4 | -12 | 0 | 3 | 6 | -1
O=C(c1ccncc1)N1CCN(C(=O)c2ccncc2)CC1 | nt | i | -6 | -17 | -2 | 2 | 2 | -15
COCCN(C(=O)CCc1nnc(Cc2c[nH]c3ccccc23)o1)C(C)C | 2 | i | 0 | -10 | 5 | 0 | 3 | -3
C=CCOc1c(Br)cc(C2NC(=O)NC(C)=C2C(C)=O)cc1OCC (stereo not drawn) | 10 | i | 9 | -9 | -1 | -5 | 2 | -9
C=CCOC(=O)C1=C[C@@H](c2coc3ccccc3c2=O)C[C@@H](OCc2ccc(CO)cc2)O1 | 28 | i | 5 | -5 | -10 | -2 | 2 | -20
CC(c1ccco1)N(C(=O)c1ccccc1NS(=O)(=O)c1ccc(Cl)cc1)c1ccccn1 (stereo not drawn) | 14 | i | 13 | -1 | 0 | -5 | -3 | 19
COc1ccccc1NC(=O)N1CCN(c2ccc3nnc(-c4ccc(F)cc4)n3n2)CC1 | -8 | i | -1 | nt | 15 | 9 | -1 | -7
COc1cc2ccccc2cc1C(=O)Nc1sc2c(c1C(N)=O)CCN(C(C)C)C2 | 8 | i | -14 | -6 | -49 | -11 | -5 | 95*
CCOc1ccc(N2C(=O)CC(N3CCN(C4CCc5ccccc5C4)CC3)C2=O)cc1 (stereo not drawn) | nt | i | 2 | -2 | 8 | 7 | 5 | 0
CCCN(C(=O)CSc1nnc(-c2ccc3c(c2)OCO3)o1)C1CCS(=O)(=O)C1 (stereo not drawn) | -14 | nt | nt | 4 | nt | 2 | 0 | nt
CN1C(N)=NC(=O)/C1=C\c1ccc(Br)cc1 | 1 | i | -6 | -6 | -5 | 3 | 3 | -5
CCc1cc(C(c2ccccn2)N2CCN(C)CC2)c(NC(=O)c2ccccc2)s1 (stereo not drawn) | 0 | i | -1 | nt | -20 | -10 | -5 | -2
OCC[C@@H]1C[C@H](O)[C@@H](O)[C@@]2(CCc3ccccc3CO2)O1 | 15 | i | -6 | 6 | 13 | 0 | 2 | 17
CCC(C)NC(=O)c1cc2c(=O)n3cccc(C)c3nc2s1 (stereo not drawn) | -11 | + | -2 | 7 | -2 | 4 | 5 | -10
O=C(COC(=O)C1CCN(c2ccc(C(F)(F)F)cn2)CC1)Nc1ccc(Cl)cn1 | nt | i | -10 | -14 | -1 | -1 | 1 | -25
Cc1ccc(C(=O)C2CCN(CC(=O)Nc3nc(C)cs3)CC2)cc1 | nt | i | -14 | -19 | -9 | 1 | -6 | 29
CN1CCN(CC(=O)Nc2nnc(-c3cccs3)s2)CC1 | 3 | i | 2 | nt | 9 | 7 | 12 | -33
CN(C)/C=C(\C=O)c1onc(-c2ccccc2Cl)c1C#N | -3 | i | 9 | nt | 5 | -3 | 2 | 3
CC(C)OC(=O)c1ccc(NC(=O)c2ccco2)cc1 | nt | i | 0 | 6 | -2 | 2 | -4 | -7
CCC(=O)Nc1ccc(C=C(C(C)=O)C(C)=O)cc1 | -8 | i | -9 | -5 | 3 | -4 | -4 | 0
c1ccc(-c2nn3c(C4CCCCC4)nnc3s2)nc1 | nt | i | -2 | -8 | -2 | 3 | 7 | 1
S=C(NCCN1CCOCC1)NC1CCCC1 | 8 | i | 4 | nt | ? | 2 | 5 | 0
CNC(=O)Nc1ccccc1C(=O)NCc1ccccc1 | nt | i | -6 | 3 | 8 | 1 | 0 | -15
CC12CCC(C3NC(=S)NN=C31)C2(C)C (stereo not drawn) | -17 | nt | nt | -4 | nt | -1 | 5 | nt
CCOC(=O)N1CCN(C2CC(=O)N(c3ccc(Oc4ccccc4)cc3)C2=O)CC1 (stereo not drawn) | 25 | i | 4 | 1 | 7 | 7 | 3 | -4
O=C(NN1CCOCC1)c1ccc(Cl)cc1[N+](=O)[O-] | nt | i | -10 | -17 | -6 | 1 | 6 | -11
CC1(C)CC(N2CCCCC2)=CC(=[N+]2CCCCC2)C1 | 35 | i | 0 | -2 | 4 | -15 | -26 | 14
Cc1noc(C)c1/C=N/Nc1ccc2ccccc2n1 | -72 | i | -10 | -31 | ? | 5 | 1 | 13
CCC(C)NS(=O)(=O)c1ccc(OC)c(Cl)c1Cl (stereo not drawn) | -36 | nt | 0 | 23 | -6 | 8 | 2 | -7
CC(C)Cn1c(SCC(=O)NC2CC2)nc2ccccc21 | 95* | nt | nt | -7 | nt | 0 | 7 | nt
